From PubChem
Six1-Eya2 inh: Six1/Eya2 interaction inhibition. actives 0.56% (n = 360,000). activity change, % (no concentration beside the values). Q15475+O00167. AlphaScreen GST-Six1/His-Eya2 binding, biochemical; active compounds read low; control for the full effect not named in the record; in the data active = activity change below about -65%; inconclusive = about -30% to -65%; inactive = above about -30%; note: % is set by controls: 0 for no effect and ±100 for the full control effect
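Six1/Eya2 binding was read as AlphaScreen signal after compounds were pinned into GST-Six1 plus His-tagged Eya2 (5X stock 250/500 nM) in pH 8.0 Tris/NaCl/TCEP buffer, beads added, then incubated 1 h, 37 C, dark.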
D2 PAM: positive allosteric modulators of human D2 dopamine receptor | P14416 | DiscoveRx D2 beta-arrestin cells, luminescence, 90 min; 100% = 57 uM dopamine signal | potentiation, % (concentration not given with the values) | actives 0.23% (n = 360,000); active = potentiation of 50% or more; inconclusive = 30% to 50%; inactive = 30% or less;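 note: compound concentration not given in the record; tested on top of an EC20 dose of dopamine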
Target sequence (P14416 whole entry, looked up): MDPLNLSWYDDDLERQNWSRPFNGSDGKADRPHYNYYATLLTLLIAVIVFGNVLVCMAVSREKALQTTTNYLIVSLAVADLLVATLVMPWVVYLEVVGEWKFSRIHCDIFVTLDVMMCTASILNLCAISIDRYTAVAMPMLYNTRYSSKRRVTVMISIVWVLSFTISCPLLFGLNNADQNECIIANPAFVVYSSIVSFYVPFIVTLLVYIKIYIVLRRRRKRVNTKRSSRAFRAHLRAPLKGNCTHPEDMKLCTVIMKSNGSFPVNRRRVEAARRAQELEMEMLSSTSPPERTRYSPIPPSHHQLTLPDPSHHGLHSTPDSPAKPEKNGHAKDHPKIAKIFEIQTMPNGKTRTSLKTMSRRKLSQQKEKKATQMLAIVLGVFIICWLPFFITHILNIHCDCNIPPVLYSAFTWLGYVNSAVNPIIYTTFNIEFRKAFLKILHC
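PathHunter D2 cells, attached overnight at 37 deg C, received compound in DMSO plus dopamine at EC20 (50 nM final) for 90 min at 37 deg C. Beta-arrestin recruitment was read as luminescence after 1 h with detection reagent at ambient temperature.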
CtBP-E1A inh: blocks the CtBP interaction with E1A. AlphaScreen GST-E1A/His-CtBP binding, 1536-well; active compounds read low; control for the full effect not named in the record. activity change, % (concentration not given with the values). actives 0.49% (n = 340,000); in the data active means activity change below about -65%; inconclusive means about -30% to -65%; inactive means above about -30%; note: % is set by controls: 0 for no effect and ±100 for the full control effect
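In 5 uL wells, 23 nL compound meets equimolar GST-E1A and His-CtBP (5X stock 125 nM each) for 2 h, 37 °C. Beads (5X, 50 ug/mL) then 1 h, 37 °C, dark.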
gsp agonist: agonists of gsp mutant (McCune-Albright syndrome); AID 624287; actives 0.13% (n = 340,000); Potency, µM (titrated, usually from 76.9 µM), for inactives: at the top dose activation (cAMP increase), actives largely listed as activators; gsp mutant cells, cAMP HTRF, 30 min; control for the full effect not named in the record; active = well fitted activation curve with a large enough effect; inconclusive = small, poorly fitted or top-dose-only effect, or another doubt; inactive = no such curve, though single readings can be large or run the other way; cell line not stated here;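 note: phosphodiesterase inhibitor Ro 20-1724 added with compounds to block cAMP breakdown; potency is the fitted concentration of half-maximal effect; nearly all actives have a fitted effect of over 60% in size; about a fifth of the inactives were tested at one dose only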
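Cells stably selected in G418 were plated at 2000/well, grown 16-24 hr, then given compounds in DMSO with the PDE inhibitor […] (300 uM solution added) for 30 min at 37C; cAMP was read by HTRF.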
D2 ag: agonists of human D2 dopamine receptor (beta-arrestin). P14416. DiscoveRx PathHunter D2 beta-arrestin, luminescence, 90 min; 100% = 57 uM dopamine signal. activation, % (concentration not given with the values). actives 0.084% (n = 360,000). AID 624465; in the data active = activation above about 40%; inconclusive = about 15% to 40%; inactive = below about 15%; note: compound concentration not given in the record; the text of the record calls up to 30% inactive
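Agonist mode: compounds alone added to overnight-plated D2 PathHunter cells for 90 min at 37 C, with 57 uM final dopamine (EC100) defining full response. Beta-arrestin recruitment detected by chemiluminescent reagent, read after 1 h at ambient temperature.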
gsp antagonist: antagonizes gsp, the McCune-Albright syndrome mutation; gsp-mutant cells, cAMP HTRF, 30 min; control for the full effect not named in the record; Potency, µM (series often up to 76.9 µM), for the others: at the highest dose activity change, negative = inhibition, most hits filed as inhibitors; actives 0.4% (n = 340,000); AID 624288; active = falling curve of any shape with a large fitted effect; inconclusive = falling curve, mostly with a smaller effect; inactive = flat or rising curve; cell line not stated here;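 note: intracellular cAMP measured with PDE inhibitor Ro 20-1724 present during compound exposure; potency is the fitted concentration of half-maximal effect; % is set by controls: 0 for no effect and ±100 for the full control effect; nearly all actives have a fitted effect of over 65% in size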
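Cells in G418 medium, seeded 16-24 h, 37C; buffer exchange to DPBS + 1 mM CaCl2, 0.5 mM MgCl2, 0.05% BSA; cpds in DMSO + […] (300 uM stock), 30 min 37C; HTRF cAMP detection.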
Numbers without * were called inactive; ? = inconclusive; nt = no result given; [ ] = dose if it differs, or a comment.

SMILES | Six1-Eya2 inh | D2 PAM | CtBP-E1A inh | gsp agonist | D2 ag | gsp antagonist
O=C(COc1ccc(Cl)cc1)NCc1nnc(SCC(=O)NCc2ccc3c(c2)OCO3)o1 | -2 | -2 | 0 | -11% | -3.0 | -7%
CC(=O)Nc1ccc(S(=O)(=O)N[C@@H](C)C(=O)OCC(=O)c2ccc(Br)s2)cc1 | 12 | -20 | 1 | ? | -2.1 | nt
Cc1ccccc1SCC(=O)OCC(=O)N(C)c1c(N)n(Cc2ccccc2)c(=O)[nH]c1=O | 0 | -27 | 10 | -42%[inhibitor] | -7.3 | -7%
N#Cc1cccc(C#N)c1Oc1ccc(N)cc1 | 0 | 2 | 5 | 4% | -1.1 | -36%
CCOc1ccc(S(=O)(=O)N2CCC(C(=O)NCCN3CCOCC3)CC2)cc1C | -1 | -9 | -5 | 0%[15.4 µM] | -3.3 | 6%
FC(F)(F)c1ccc(Oc2ccc3cc(Br)ccc3c2)nc1 | 24 | -3 | 0 | ? | -3.5 | -7%
CC(C)CNC(=O)CSc1ccc(Cl)cc1 | 7 | 2 | 3 | -1% | -0.9 | 2%
O=C(O)CC(NC(=O)c1ccncc1)c1ccccc1 (configuration not stated) | 10 | -2 | 4 | 2% | -2.6 | 12%
N#Cc1cc2ccccc2nc1N | 2 | -6 | 0 | -11%[15.4 µM] | -1.8 | 10%
Cc1c(Cl)cccc1NC(=O)Cc1ccc([N+](=O)[O-])cc1 | -7 | 6 | -27 | 13% | 2.5 | 5%
Cc1ccc(S(=O)(=O)CCC(=O)Nc2cccc([N+](=O)[O-])c2)cc1 | -2 | -10 | nt | -51%[inhibitor] | 1.8 | -3%
CSc1ncccc1C(=O)NCc1ccc(C)cc1 | 15 | -7 | -1 | -15% | -4.9 | 4%
Cc1ccc(-c2nc(N)n(C(=O)c3cccnc3)n2)cc1 | 2 | -8 | 0 | -52%[inhibitor] | -2.6 | 0%
O=c1ccc(=O)n2n1CC(O)C2 | 10 | -4 | -2 | 21% | -1.5 | -9%
Cc1ccc(S(=O)(=O)N2CCCC2CNC(=O)C(=O)Nc2ccc(F)cc2)cc1 (configuration not stated) | -3 | 2 | -14 | ? | 1.9 | 1%
COc1ccc(/C=C/C(=O)NCCSCc2ccco2)cc1 | -17 | 10 | -16 | -17% | 0.2 | 3%
CCOC(=O)/C=C1\SCC(=O)N1Cc1ccc(Br)cc1 | 2 | 9 | 2 | 4% | 0.3 | ?
COc1ccc(NC(=O)CCN2C(=O)[C@@H]3[C@H](C2=O)[C@H]2C=C[C@@H]3C2)cc1 | 5 | -10 | 1 | 5% | -5.1 | 8%
CC(C)C[C@@H](CSc1ccc(Br)cc1)N1CCN(CCc2ccccc2)CCC1=O | 28 | -10 | 20 | nt | -2.5 | -14%
CC(=O)NC(Cc1ccc(F)cc1)C(=O)NC1CCN(C(=O)Nc2ccccc2C)CC1 (configuration not stated) | 8 | 1 | 12 | -3% | -1.4 | 5%
O=C(NC1CC1)c1ccc(NS(=O)(=O)c2ccc(F)cc2)cc1 | 2 | 21 | 6 | 4%[15.4 µM] | 2.9 | ?
O=C1C(=O)C(Cl)=C(Cl)C(Cl)=C1Cl | -14 | -8 | -18 | nt | -2.9 | nt
CCOC(=O)Cc1c(C)nc(N)[nH]c1=O | -11 | -5 | -3 | -21%[15.4 µM] | -1.7 | 4%
CC(C)(C)c1ccc(Cn2c(=O)cnc3ccccc32)cc1 | 13 | -1 | 8 | 39% | 0.3 | 13%
CCOCCCNC(=O)C(c1ccc(Cl)cc1)N1CCN(c2ccccc2)CC1 (configuration not stated) | 1 | -3 | 1 | 29% | -2.3 | 13%
SMILES | Six1-Eya2 inh | D2 PAM | CtBP-E1A inh | gsp agonist | D2 ag | gsp antagonist
C=CCNc1nc(N2CCCC2)nc2ccccc12 | -5 | -22 | -19 | 26% | -2.7 | 9%
Cc1cc(C)n2c(SCC(=O)Nc3c(C)n(C)n(-c4ccccc4)c3=O)nnc2n1 | -3 | -4 | 2 | ? | -2.9 | 8%
COc1ccc(C(NC(=O)CC(C)C)c2c(O)ccc3ccccc23)cc1 (configuration not stated) | 12 | -25 | nt | -26% | -1.9 | -6%
CC(=O)c1cccc(NC(=O)CCc2nnc3ccc(NCc4ccco4)nn23)c1 | -18 | -2 | nt | ? | 4.2 | 7%
CC1Oc2ccccc2N(CC(=O)N2CCCCC2)C1=O (configuration not stated) | 14 | -7 | -7 | 2%[15.4 µM] | -3.6 | nt
Clc1ccccc1Cn1nnc2ccccc21 | 4 | -6 | 3 | 1% | -2.2 | -21%
Cc1nn(C)c(C)c1NC(=O)c1ccc(S(=O)(=O)N(C)C)cc1 | -1 | -2 | -18 | -2% | -0.6 | 5%
Cc1ccsc1C(=O)NNC(=O)COc1ccccc1Cl | -1 | -4 | 1 | -15%[15.4 µM] | -0.6 | 1%
COc1ccc(-c2c(C)nn3c(N4CCOCC4)cc(C)nc23)cc1OC | -17 | -2 | -2 | 30%[15.4 µM] | 3.1 | -27%
COc1cccc(/C=C/C(=O)OCC(=O)Nc2ccccc2Sc2ccccc2)c1 | 10 | 0 | 4 | 12% | 0.7 | -4%
COc1ccc(/C=C2\C(=O)NCC(=O)N2C)cc1 | 13 | -13 | nt | -4% | -0.6 | 7%
Cc1ccc(S(=O)(=O)N(C)c2ccc(C)c([N+](=O)[O-])c2)cc1 | -3 | -10 | -7 | -1%[15.4 µM] | -2.0 | 0%
CC1=CC(=O)C(C(C)C)=C/C1=N\OC(=O)c1cccc2nc(C)oc12 | 3 | 4 | 4 | -12% | 2.5 | 2%
Cc1ccc(N(C(C)C(=O)O)S(=O)(=O)c2cccnc2)cc1 (configuration not stated) | 1 | 0 | 8 | 2% | -3.9 | 3%
Cc1ccc(S(=O)(=O)Nc2cccc(/C=C/C(=O)O)c2)cc1 | 4 | 12 | 1 | 23% | -0.2 | 0%
Nc1nc(-c2cccc(F)c2)cs1 | -15 | 1 | -5 | 1% | -1.2 | 5%
Cc1ccsc1-c1n[nH]c(=S)n1C1CCCCC1 | 7 | -11 | -2 | -38%[inhibitor] | 0.6 | 5%
O=C(O)CCCNC(=O)c1cncc(Br)c1 | -6 | -20 | 5 | -18% | 0.1 | 9%
Cc1c(C(=O)N(Cc2cccs2)C2CCS(=O)(=O)C2)oc2ccccc12 (configuration not stated) | -3 | -13 | 1 | -18% | -3.0 | ?
COc1cccc(/C=C(\C#N)c2nc3ccccc3[nH]2)c1OCC(=O)O | -5 | 0 | -17 | 3% | -6.4 | 6%
O=C(CN1C(=O)C2CC=CCC2C1=O)OCC(=O)c1ccc(Cl)c([N+](=O)[O-])c1 (configuration not stated) | 6 | -44 | 10 | -12% | -19 | ?
Cc1ccc2c(Cl)c(C(=O)NCCc3ccccc3)sc2c1 | 16 | -3 | -1 | 6% | 0.3 | 2%
Cc1cc(=O)oc2cc(OCC(=O)OCC(=O)NC(=O)NC(C)C)ccc12 | 6 | -4 | -1 | 2% | 0.7 | -1%
Cc1ccc(NC(=O)Nc2nnc(CSCCOc3ccc(Cl)cc3)s2)cc1 | 1 | -18 | 2 | -2% | 0.4 | -3%
O=C(NCCN1CCOCC1)c1cccc(NS(=O)(=O)c2ccc(Br)cc2)c1 | 9 | -16 | -8 | 28% | 1.3 | 3%

In the list so far, 7 contain an aryl methoxy group:
SMILES | Six1-Eya2 inh | D2 PAM | CtBP-E1A inh | gsp agonist | D2 ag | gsp antagonist
COc1ccc(/C=C/C(=O)NCCSCc2ccco2)cc1 | -17 | 10 | -16 | -17% | 0.2 | 3%
COc1ccc(NC(=O)CCN2C(=O)[C@@H]3[C@H](C2=O)[C@H]2C=C[C@@H]3C2)cc1 | 5 | -10 | 1 | 5% | -5.1 | 8%
COc1ccc(C(NC(=O)CC(C)C)c2c(O)ccc3ccccc23)cc1 (configuration not stated) | 12 | -25 | nt | -26% | -1.9 | -6%
COc1ccc(-c2c(C)nn3c(N4CCOCC4)cc(C)nc23)cc1OC | -17 | -2 | -2 | 30%[15.4 µM] | 3.1 | -27%
COc1cccc(/C=C/C(=O)OCC(=O)Nc2ccccc2Sc2ccccc2)c1 | 10 | 0 | 4 | 12% | 0.7 | -4%
COc1ccc(/C=C2\C(=O)NCC(=O)N2C)cc1 | 13 | -13 | nt | -4% | -0.6 | 7%
COc1cccc(/C=C(\C#N)c2nc3ccccc3[nH]2)c1OCC(=O)O | -5 | 0 | -17 | 3% | -6.4 | 6%

Further results:
SMILES | Six1-Eya2 inh | D2 PAM | CtBP-E1A inh | gsp agonist | D2 ag | gsp antagonist
Cc1cc(NS(=O)(=O)c2ccc(NC(=S)NC(=O)/C=C/c3ccccc3)cc2)no1 | -6 | -4 | -7 | 7% | -1.7 | ?
C[C@H](CO)N1C[C@H](C)[C@@H](CN(C)C(=O)NC2CCCCC2)Oc2c(NC(=O)Nc3ccc(C(F)(F)F)cc3)cccc2C1=O | 26 | 30 | 0 | nt | 3.5 | -13%
CCOC(=O)C(=CNCC(=O)OC)C(=O)OCC | 16 | 4 | 0 | 14% | 1.2 | 0%
CCOc1cccc(OCCCCN2CCOCC2)c1 | -21 | -26 | -2 | -45% | -0.6 | 2%
CCOc1cc(/C=C2/NC(=O)N(CC(=O)OC)C2=O)ccc1OC | -2 | 0 | -2 | -24%[15.4 µM] | -4.7 | -2%
S=C(NCc1ccccc1)Nc1ccc2ccccc2c1 | -1 | -1 | -2 | -18% | -0.5 | -5%

Two entries picked at random from those above, as already listed:
SMILES | Six1-Eya2 inh | D2 PAM | CtBP-E1A inh | gsp agonist | D2 ag | gsp antagonist
CCOc1cc(/C=C2/NC(=O)N(CC(=O)OC)C2=O)ccc1OC | -2 | 0 | -2 | -24%[15.4 µM] | -4.7 | -2%
Cc1cc(NS(=O)(=O)c2ccc(NC(=S)NC(=O)/C=C/c3ccccc3)cc2)no1 | -6 | -4 | -7 | 7% | -1.7 | ?
